NCOA2 inhibitor: human SRC2 (NCOA2) inhibition | Q15596 | HEK293 GAL4-SRC2 luciferase reporter, luminescence | 370,000 compounds, 0.17% hits | inhibition, % at 9 µM | AID 651957;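 active = inhibition above the mean inhibition of all tested compounds plus 3 SD, set per campaign, cut at about 52% in these data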;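 also: 0% = DMSO treated cells and 100% = cells given Gossypol at 36 µM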
LRH-1 inv ag: NR5A2 inverse agonism in reporter assay; O00482; HEK293T StAR-luciferase reporter, LRH-1 transfected, 24 h; inhibition, % at 3.6 µM; 360,000 compounds, 0.13% hits; AID 602396;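 active = inhibition above the mean inhibition of all tested compounds plus 3 SD, cut at about 73% in these data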;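 also: 0% = DMSO wells and 100% = reporter-only cells lacking LRH-1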
ABHD5 PLIN5 PPI: inhibitors of human ABHD5-perilipin-5 interaction. Split G. princeps luciferase complementation, luminescence, 4 h. AID 602281. 360,000 compounds, 0.78% hits. inhibition, % at 4 µM. Q00G26+Q8WTS1;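 active = inhibition above the mean inhibition across every tested compound plus 3 SD, cut at about 22% in these data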;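 also: 0% = DMSO only wells and the 100% control is not disclosed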
MC4R antagonist: antagonists of human melanocortin 4 receptor (MC4R). P32245. MC4R-expressing cells, MTII-stimulated cAMP, LANCE TR-FRET. inhibition, % at 6.5 µM. 360,000 compounds, 0.48% hits;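 active = inhibition above its plate's cutoff, the mean of tested wells on that plate plus 3 SD, cut at about 29% in these data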;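 also: 0% = Melanotan II alone and 100% = Melanotan II plus saturating MCL0020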
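Material: human MC4R-expressing U2OS cells. Probe or stimulus: Melanotan II challenge. Dosing: 6.5 µM single dose. Times: 30-min compound, 1-h challenge, 1-h detection, room temperature. Technique: TR-FRET with Eu-cAMP and labeled anti-cAMP, 671 nm. Replication: singlicate.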
NR2F2 inh: blocks human COUP-TFII nuclear receptor; P24468; HEK293T NGFI-A luciferase reporter, luminescence; inhibition, % at 8.6 µM; 370,000 compounds, 0.7% hits;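 active = inhibition above a per-plate cutoff, mean inhibition of test wells between control levels plus 3 SD, cut at about 38% in these data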;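 also: cells cotransfected with COUP-TFII expression vector driving the NGFI-A reporter; 0% = median of COUP-TF2 test wells and 100% = reporter-only cells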
MC4R barr agon: activates human MC4R beta-arrestin recruitment; P32245; U2OS MC4R beta-arrestin complementation, luminescence; percent of melanotan II response, DMSO zero; activation, % at 8.9 µM; 360,000 compounds, 0.98% hits;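 active = activation above a per-plate cutoff, the mean activation of sample wells on that plate plus 3 SD, cut at about 8% in these data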
NCOA3 inh: inhibitors of human steroid receptor coactivator 3 (SRC3). inhibition, % at 3.6 µM. 360,000 compounds, 0.17% hits. Q9Y6Q9. HEK293 GAL4-SRC3 luciferase reporter, luminescence;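 active = inhibition above a per-campaign cutoff, the mean of all compounds plus 3 SD, cut at about 60% in these data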;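 also: 0% = DMSO-treated cells and 100% = gossypol-treated cells at 36 µM; higher means less SRC3-driven luciferase light from the GAL4 reporter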
NCOA1 inh: inhibitors of human steroid receptor coactivator 1 (SRC1); HEK293 GAL4-SRC1 luciferase reporter, luminescence; 360,000 compounds, 0.12% hits; inhibition, % at 3.6 µM; Q15788;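 active = inhibition above the campaign mean plus 3 SD, with each screening campaign given its own cutoff, cut at about 60% in these data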;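 also: 0% = DMSO treated cells and 100% = gossypol at 36 µM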
TLR9-MyD88 inh: blocks human TLR9 binding to MyD88. inhibition, % at 4.98 µM. CHO BLA complementation TLR9-MyD88, CCF4 FRET ratio. 340,000 compounds, 0.21% hits. Q9NR96+Q99836. AID 504734;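 active = inhibition above the mean over all tested compounds plus 3 SD, cut at about 21% in these data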;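 also: 0% = DMSO only wells and 100% = clavulanate BLA inhibitor control wells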
Target sequence (Q99836 whole entry, looked up): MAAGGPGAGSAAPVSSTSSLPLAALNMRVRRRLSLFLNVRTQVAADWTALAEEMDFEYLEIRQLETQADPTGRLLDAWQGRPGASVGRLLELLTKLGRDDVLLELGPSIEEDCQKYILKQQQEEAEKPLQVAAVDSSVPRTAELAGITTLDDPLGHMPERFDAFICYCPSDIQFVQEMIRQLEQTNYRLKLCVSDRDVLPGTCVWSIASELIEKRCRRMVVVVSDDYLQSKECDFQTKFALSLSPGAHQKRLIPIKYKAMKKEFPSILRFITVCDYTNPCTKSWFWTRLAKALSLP
Target sequence (Q9NR96 whole entry, looked up): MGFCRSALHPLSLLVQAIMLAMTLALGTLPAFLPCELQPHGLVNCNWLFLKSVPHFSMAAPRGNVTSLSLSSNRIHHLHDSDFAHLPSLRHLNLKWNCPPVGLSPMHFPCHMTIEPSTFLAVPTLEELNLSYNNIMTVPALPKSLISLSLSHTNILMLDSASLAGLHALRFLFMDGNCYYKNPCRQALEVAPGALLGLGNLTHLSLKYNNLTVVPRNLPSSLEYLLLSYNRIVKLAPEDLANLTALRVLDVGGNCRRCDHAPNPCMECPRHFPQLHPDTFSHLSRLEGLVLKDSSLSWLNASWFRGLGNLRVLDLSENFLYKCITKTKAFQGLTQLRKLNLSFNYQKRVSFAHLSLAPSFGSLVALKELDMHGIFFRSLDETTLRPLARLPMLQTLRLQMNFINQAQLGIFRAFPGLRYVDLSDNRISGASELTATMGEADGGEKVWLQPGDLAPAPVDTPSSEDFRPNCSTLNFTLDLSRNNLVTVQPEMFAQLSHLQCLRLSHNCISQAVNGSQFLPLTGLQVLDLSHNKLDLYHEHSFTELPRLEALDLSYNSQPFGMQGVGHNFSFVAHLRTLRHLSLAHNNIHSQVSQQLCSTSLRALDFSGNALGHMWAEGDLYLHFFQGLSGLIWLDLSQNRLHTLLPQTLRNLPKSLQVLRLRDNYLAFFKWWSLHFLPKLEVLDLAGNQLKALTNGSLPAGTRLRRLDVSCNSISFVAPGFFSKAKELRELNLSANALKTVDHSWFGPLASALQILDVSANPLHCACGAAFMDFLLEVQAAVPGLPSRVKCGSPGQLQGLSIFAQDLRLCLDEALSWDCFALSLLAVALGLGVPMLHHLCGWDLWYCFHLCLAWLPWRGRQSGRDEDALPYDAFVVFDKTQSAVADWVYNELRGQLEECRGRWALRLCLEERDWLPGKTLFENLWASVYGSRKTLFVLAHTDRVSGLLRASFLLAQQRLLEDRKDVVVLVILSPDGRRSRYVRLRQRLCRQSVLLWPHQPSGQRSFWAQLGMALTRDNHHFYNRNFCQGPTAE
NOD2-RIPK2 inh: NOD2-RIPK2 protein interaction inhibition; CHO BLA complementation NOD2-RIPK2, CCF4 ratio; inhibition, % at 4.98 µM; 360,000 compounds, 0.38% hits; in the data active = inhibition above about 21%;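 also: 0% = vehicle only and 100% = reference blocker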
Starred values were filed as active, the others as inactive; . = no result given; & = joins results of further samples; ! = repeats disagree. This is a subset (hit frequency here may not be typical).

Structure,NCOA2 inhibitor,LRH-1 inv ag,ABHD5 PLIN5 PPI,MC4R antagonist,NR2F2 inh,MC4R barr agon,NCOA3 inh,NCOA1 inh,TLR9-MyD88 inh,NOD2-RIPK2 inh
COc1ccc(C(=O)Nc2cc(C)c(NC(=O)c3ccccc3OC)cn2)cc1,-22,-7,-2,20,-5,0.7,-14,-34,7,-6
CSc1ccc2c(c1)C(N1CCN(C)CC1)Cc1ccccc1S2 (stereo not drawn),-32&4,-11&-4,14&21,-1&-3,-1&9,11*!,-3&-3,-16&4,5&3,-11&15
O=c1[nH]c(=O)n([C@H]2C[C@H](O)[C@@H](CO)O2)cc1F,16,11,-1,2,-32,0.2,67*,66*,-8,7
Cc1nc2sc(C(N)=O)c(N)c2c2c1CCCC2,39,4,-2,0,51*,0.2,52,42,3,-10
CSc1nc(N)nc(SCC(=O)C23CC4CC(CC(C4)C2)C3)c1C#N,0,11,-7,-12,31,1.4,18,-16,-5,6
c1ccc(-c2nnc(-c3ccccn3)s2)nc1,-34,-80,-1,9,8,-1.8,-33,-77,9,-7
Cc1cc(C)c2sc(NC(=O)C3CC3)nc2c1,-29,-39,-3,-5,-41,1.0,-17,-26,7,8
Cn1cccc1/C=C1\CC(C(C)(C)C)C/C(=C\c2cccn2C)C1=O (stereo not drawn),-8,12,25*,1,8,-0.1,10,-11,4,5
CCOc1cc(/C=C2/C(=N)N3N=C(CC)SC3=NC2=O)ccc1OC(=O)c1ccco1,14,37,3,-7,-4,-2.3,-4,-1,1,-2
COc1ccc(S(=O)(=O)NCCc2csc(-c3cccnc3)n2)cc1,-18,-13,7,10,5,1.9,-8,5,-2,2
O=C(NCCOc1ccccc1)c1ccc2c(c1)OCO2,33,-72,1,4,24,-1.4,-26,-8,2,2
Cc1nc(C)c(C(=O)Nc2ncc([N+](=O)[O-])s2)o1,3,-67,-2,-4,18,0.6,-41,-28,-3,-22
COC(=O)[C@H](C)[C@@H]1C[C@@]1(C)[C@@H](NC(=O)OCc1ccccc1)c1ccccc1,0,-2,-8,3,-3,0.6,-2,-42,-13,-7
Clc1ccc(-c2cn3nc4c(nc3n2)CCCC4)cc1,-39,-101,-10,11,-34,-0.2,-76,-90,-3,-2
COCCn1c(C)cc(C(=O)CSc2nnc3ccccn23)c1C,-21,-11,-4,-1,-12,-0.6,-1,-2,14,-16
COc1cccc(C(=O)OCn2nnc3ccccc3c2=O)c1OC,13,9,-4,6,-1,0.9,-8,2,-8,2
c1csc(CNc2ncnc3ccc(-c4ccoc4)cc23)c1,52,13,11,13,30,-0.8,57,44,1,4
O=[N+]([O-])c1ccc(Cl)c(S(=O)(=O)NCC2CCCO2)c1 (stereo not drawn),-18,-26,0,7,-5,0.4,-19,-1,0,-3
COC(=O)C1=NN[C@H](C(=O)OC)[C@H]1c1ccccc1,2,-16,3,5,2,-1.3,3,-3,8,-1
Cc1ccccc1NC(=O)CN1C(=O)S/C(=C\c2cccn2-c2cccc(C(=O)O)c2)C1=O,-24,2,-3,5,-4,-1.6,17,-5,-6,-2

NR2F2 inh, hit marks shown above
Structure,NCOA2 inhibitor,LRH-1 inv ag,ABHD5 PLIN5 PPI,MC4R antagonist,NR2F2 inh,MC4R barr agon,NCOA3 inh,NCOA1 inh,TLR9-MyD88 inh,NOD2-RIPK2 inh
Cc1nc2sc(C(N)=O)c(N)c2c2c1CCCC2,39,4,-2,0,51*,0.2,52,42,3,-10

Additional structures.
Structure,NCOA2 inhibitor,LRH-1 inv ag,ABHD5 PLIN5 PPI,MC4R antagonist,NR2F2 inh,MC4R barr agon,NCOA3 inh,NCOA1 inh,TLR9-MyD88 inh,NOD2-RIPK2 inh
COc1ccccc1[C@@]1(C)ON(c2ccccc2C(F)(F)F)C1=O,25,33,2,4,13,-1.2,17,0,3,-13
O=C(NC(Cc1c[nH]c2ccccc12)C(=O)Nc1ccc(F)c([N+](=O)[O-])c1)c1cccs1 (stereo not drawn),22,-20,5,18,-75,-3.6,14,-31,-8,0
CC(=O)c1cc(C(=O)Nc2ccc(C(=O)O)cc2)oc1C,3,-3,-1,6,-2,-2.2,-5,6,-1,0
O=C(N/N=C/c1cccnc1)c1cc(-c2cccs2)nc2ccccc12,-11,1,2,4,-9,-0.5,0,-1,13,8
O=C(O)c1ccc(-n2cncn2)c([N+](=O)[O-])c1,-14,6,3,17,-2,-2.5,8,-30,-9,-6
O=C(CSc1ncnc2ccccc12)NCc1ccc2c(c1)OCO2,-6,12,4,13,-10,1.4,3,-8,-10,4
C[C@@H](C(=O)Nc1ccc2c(c1)OCCO2)n1c(=O)[nH]c2ccccc2c1=O,41,52,0,-2,28,-0.7,67*,61,8,-10
Cc1ccc(CSc2nc3ccncc3[nH]2)cc1,-54,-140,7,5,-37,0.3,-134,-87,-7,-8
C=CCn1c(SCc2csc(C)n2)nc2sc3c(c2c1=O)CCCC3,12,4,2,5,-5,-0.5,-66,-49,-2,6
COc1ccc(-c2nc(-c3cccs3)no2)cc1,16,-117,5,1,3,1.7,-50,-69,-7,-3
CCC(C)(C)NC(=O)C(c1ccc(F)cc1)N(CCOC)C(=O)CCC(=O)Nc1nccs1 (stereo not drawn),15,4,0,13,10,0.0,2,-2,-6,3
c1ccc(-c2cccc(-c3ccccn3)n2)nc1,.,98*,-2,-1,.,-1.1,84*,81*,7,-6
COc1cc2c(CCNC(C)=O)c[nH]c2cc1Cl,5,5,1,-3,-14,-0.4,13,-30,-12,-3
CCOC(=O)C1=C(O)/C(=C/c2ccc(CNC(=O)C(=O)Nc3ccc(C)cc3)o2)N=C1C,14,-11,2,8,0,0.9,-3,-8,-9,-1
COC(=O)c1cccc2c1-c1ccccc1/C2=N/O,43,-2,-7,-2,20,1.2,42,33,-6,5
CC(C)(C)n1nc(-c2ccc(Cl)cc2)c2c(N)ncnc21,4,3,-11,13,-12,1.6,-7,-10,4,0
CC(=O)O[C@H]1CC[C@@]2(C)C(=CC[C@H]3[C@@H]4CC[C@H](C(C)=O)[C@@]4(C)CC[C@@H]32)C1,-6,-18,2,18,8,2.7,-3,8,0,-7
CC1(C)CC(NS(=O)(=O)c2ccc(F)cc2)CC(C)(C)N1,-7,12,-5,10,-12,-0.8,-25,-41,-12,3
CCOc1ccc(OCc2cccc(C(=O)N/N=C/c3cccnc3)c2)cc1,-81,-213,-14,3,-39,-1.5,-145,-139,1,4
COC(=O)C1=C(C(=O)c2ccccc2)C(c2ccccc2)n2nnnc2N1 (stereo not drawn),3,7,1,-1,-3,-1.7,17,-7,1,-2
CCN(CC)Cc1cc(Nc2ccnc3cc(Cl)ccc23)ccc1O,2&-22,3&-1,7&-3,-6&7,-7&-12,-1.1&0.3,6&-2,-20&-2,8&1,-3&-8
COc1cc(C(=S)N2CCOCC2)cc(OC)c1OC(=O)c1ccc(F)cc1,9,11,-8,10,6,1.2,3,1,4,3
Cc1ccc(NC(=S)NCc2cccs2)cc1,-26,-36,0,0,-10,-1.9,-38,-36,5,-10
CNc1ccc(Br)cc(C(=O)/C=C/c2cc(OC)ccc2OC)c1=O,16,-6,26*,6,8,-1.9,4,2,9,6
NC(=O)c1ccccc1N/C=C/C(=O)c1cccs1,-31,-111,-2,-7,-16,-1.7,-79,-124,10,5
Cc1cc(=O)[nH]c(N/N=C/c2ccc(C)o2)n1,17,-6,5,5,0,0.1,-12,-19,-3,0
O=C(Nc1nnc(N2CCCCCC2)s1)c1cc(-c2ccc(Br)cc2)on1,7,15,-6,3,-12,0.0,4,10,-2,-3
CN1CCN(CCOc2ccc(Cc3ccccc3)cc2)CC1,-19,2,6,5,2,-0.7,-11,-2,-1,-5
Cc1ccc(-c2cc(N)n3nc(-c4ccc(C)cc4)cc3n2)cc1,-26,0,-13,3,-9,1.8,7,-6,9,3
CCC1OC(=O)C(C)C(OC2C[C@@](C)(OC)C(O)C(C)O2)C(C)C(O[C@@H]2OC(C)CC(N(C)C)C2O)[C@](C)(O)CC(C)C(=NOCOCCOC)C(C)C(O)[C@]1(C)O (stereo partly drawn),-24,-14,6,4,3,-1.2,-7,-12,-1,-10
COc1ccc(-c2cn3nc4c(nc3n2)CCCC4)cc1,-81,-65,-4,-6,-17,-2.5,-56,-85,4,-1
CN(C)CCN(Cc1ccc(Cl)cc1)c1ccccn1,3,29,2,-1,11,-0.7,2,14,2,-8
CCc1nnc(NC(=O)c2ccc(S(=O)(=O)N3CCOCC3)cc2)s1,9,1,-6,5,-14,-0.9,6,-18,-2,-4
O=C(Nc1nnc(SCc2ccc(F)cc2)s1)c1ccccn1,-14,-28,-6,-5,-15,-2.1,-14,-114,-10,1
Cc1ccc(C)c(S(=O)(=O)N2CCN(C(=O)c3ccc(C)s3)CC2)c1,12,8,1,-1,19,-2.3,-5,7,2,7
O=C1c2cccc3c(O)ccc(c23)C(=O)N1c1ccc(Cl)cc1,-12,-16,0,19,5,0.2,-5,1,27*,7
Cc1ccc(-n2ccc(=O)c(C(=O)Nc3ccc(S(=O)(=O)N4CCOCC4)cc3)n2)cc1,-19,-4,2,13,10,-1.2,5,-12,-52,-15
CN(C)CCC(c1ccccc1)c1ccccn1 (stereo not drawn),12&-13&16,-11&21&7,3&6&-3,-5&4&8,9&-8&-7,-0.3&0.1&1.2,3&-18&-1,5&3&5,5&5&-8,-3&-16&10
Cc1nc2sc(-c3ccccc3)cc2c(=O)n1N,-29,-135,11,-9,-34,0.9,-26,-67,-2,-4
NC(=O)CC(NC(=O)c1ccccc1)c1ccc(NC2CCN(Cc3ccccc3)CC2)c([N+](=O)[O-])c1 (stereo not drawn),15,9,-1,4,2,-1.8,-6,-1,8,1

Some of these compounds in order of length of the SMILES, largest number first.
Structure,NCOA2 inhibitor,LRH-1 inv ag,ABHD5 PLIN5 PPI,MC4R antagonist,NR2F2 inh,MC4R barr agon,NCOA3 inh,NCOA1 inh,TLR9-MyD88 inh,NOD2-RIPK2 inh
CCOC(=O)C1=C(O)/C(=C/c2ccc(CNC(=O)C(=O)Nc3ccc(C)cc3)o2)N=C1C,14,-11,2,8,0,0.9,-3,-8,-9,-1
CCOc1ccc(OCc2cccc(C(=O)N/N=C/c3cccnc3)c2)cc1,-81,-213,-14,3,-39,-1.5,-145,-139,1,4
Cc1cc(=O)[nH]c(N/N=C/c2ccc(C)o2)n1,17,-6,5,5,0,0.1,-12,-19,-3,0

More compounds
Structure,NCOA2 inhibitor,LRH-1 inv ag,ABHD5 PLIN5 PPI,MC4R antagonist,NR2F2 inh,MC4R barr agon,NCOA3 inh,NCOA1 inh,TLR9-MyD88 inh,NOD2-RIPK2 inh
O=C(CCc1ccccc1Cl)N1CCN(S(=O)(=O)c2ccccc2)CC1,3,11,-3,3,16,-1.8,12,-26,1,2
Brc1ccc(-c2nc(-c3ccccn3)no2)o1,24,-90,-4,-6,-13,-1.0,-37,-58,7,5
Clc1ccc(-n2ncc3c(N4CCCC4)ncnc32)cc1,23,15,3,3,34,2.2,24,15,4,0
Clc1cccc(CN2CCCCCC2)c1,-20,8,-6,11,14,0.8,7,-15,-13,-5
COc1ccc(NC(=O)N(CCN2CCCC2)Cc2cc3cc(OC)c(OC)cc3[nH]c2=O)cc1,-40,5,2,12,4,-1.1,8,3,5,-3
